Source: PubChem
GLA inh pH 4.5: qHTS Assay for Inhibitors of Human alpha-Galactosidase at pH 4.5. 230,000 tested, under 10 active. purified enzyme, 4-MU-alpha-Gal fluorescence, pH 4.5. activity change, negative = inhibition, % at 105 µM; inconclusive = small, poorly fitted or top-dose-only inhibition, or a rising curve; inactive = flat fitted curve, though single readings scatter; no compound was filed as active;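 note: 0% = full activity with enzyme and -100% = basal without enzyme; dose as in the result columns while the protocol names 77 µM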
miR-21 reporter: qHTS Assay for Modulators of miRNAs and/orActivators of miR-21. HeLa miR-21 FLuc reporter, luciferase, 48 h. Potency, µM (titrated, usually from 38.3 µM), for inactives: at the top dose reporter change, positive = more light. 340,000 tested, under 10 active. AID 2288, 2010; active = well fitted rising curve with a large enough effect; inconclusive = small, poorly fitted or top-dose-only effect; inactive = no such curve, though single readings can be large or run the other way;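 note: % of control where 0% means no effect; miR-21 action dims this reporter so a rising signal means less miR-21 action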
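HeLa miR-21-FLuc reporter line, endogenous miR-21; 2000 cells/well in DMEM/10% FBS; compound titration up to ~40uM final, 48 h, 37 degree Celsius; luciferase detection reagent, 15 min lysis, CCD luminescence.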
Rango dissoc inh: qHTS Assay for Inhibitors of RanGTP induced Rango (Ran-regulated importin-beta cargo) - Importin beta complex dissociation | Potency, µM (highest dose often 46.1 µM), for the others: at the highest dose activity change, negative = inhibition | 340,000 compounds, 0.071% hits | Snurportin-1 (Homo sapiens) + GTP-binding nuclear protein Ran (Homo sapiens) + Importin … | AID 540253, 2011 | Biochemical FRET Rango-importin beta, RanGTP-induced dissociation; active means falling FRET ratio curve, often poorly fitted, with flat reads before Ran was added; inconclusive means other falling curves, or compound fluorescence or quenching; inactive means flat or rising ratio curve;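 note: potency is the fitted concentration of half-maximal effect; % of control where 0% means no effect; nearly all actives have a fitted effect of over 45% in size; -100% = wells without RanGTP and RCC1; the record marks most hits as doubtful in a second field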
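Recombinant Rango FRET biosensor (EYFP–snurportin 1 IBB–cerulean CFP10) at 0.1 uM premixed with 0.25 uM importin beta in PBS, 1 mM DTT, 0.02% Tween-20, 0.1% BSA. Compound added 5 min; RanGTP-RCC1 (0.6 uM Ran, 2 mM GTP, 0.2 uM RCC1) then triggers release, read at 45 min.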
Rango-impB inh: qHTS Assay for Inhibitors of Rango (Ran-regulated importin-beta cargo) - Importin beta complex formation | Importin subunit beta-1 (Homo sapiens), Q14974 | Rango CFP/YFP FRET sensor + importin beta, 45 min | Potency, µM (series often up to 92.2 µM), for inactives: at the top dose inhibition of complex formation | 340,000 compounds, 0.031% hits | AID 540263, 2011; active = rising FRET ratio curve, often small or poorly fitted; inconclusive = mostly compound fluorescence or quenching in the first reads; inactive = flat curves in all reads;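 note: potency is the fitted concentration of half-maximal effect; 0% = DMSO wells and 100% = buffer wells lacking importin beta; nearly all actives have a fitted effect of over 15% in size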
Target sequence (Q14974 whole entry, looked up): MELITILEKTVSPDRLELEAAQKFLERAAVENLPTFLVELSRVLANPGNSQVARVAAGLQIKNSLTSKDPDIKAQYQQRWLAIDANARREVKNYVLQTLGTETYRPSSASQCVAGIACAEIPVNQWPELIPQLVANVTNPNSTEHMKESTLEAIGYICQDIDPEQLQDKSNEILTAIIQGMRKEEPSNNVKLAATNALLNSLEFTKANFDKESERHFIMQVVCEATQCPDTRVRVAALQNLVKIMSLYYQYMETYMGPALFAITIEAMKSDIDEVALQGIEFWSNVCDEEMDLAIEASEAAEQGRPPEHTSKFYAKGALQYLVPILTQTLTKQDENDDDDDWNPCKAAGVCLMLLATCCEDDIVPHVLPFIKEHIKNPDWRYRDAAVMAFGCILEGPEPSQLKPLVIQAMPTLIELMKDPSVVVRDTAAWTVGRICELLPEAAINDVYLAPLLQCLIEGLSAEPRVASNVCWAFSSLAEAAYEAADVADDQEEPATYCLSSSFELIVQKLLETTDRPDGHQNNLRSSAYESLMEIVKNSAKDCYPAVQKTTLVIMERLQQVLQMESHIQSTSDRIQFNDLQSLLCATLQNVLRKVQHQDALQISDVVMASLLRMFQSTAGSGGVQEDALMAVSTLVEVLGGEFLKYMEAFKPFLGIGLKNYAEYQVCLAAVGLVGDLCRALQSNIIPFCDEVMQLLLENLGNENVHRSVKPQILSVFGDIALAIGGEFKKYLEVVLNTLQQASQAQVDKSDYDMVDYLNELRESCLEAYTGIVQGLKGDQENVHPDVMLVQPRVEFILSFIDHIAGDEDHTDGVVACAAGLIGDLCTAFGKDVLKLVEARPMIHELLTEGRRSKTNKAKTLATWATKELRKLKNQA
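Inhibition scored from the CFP 486 nm/YFP 530 nm FRET ratio 45 min after adding 0.125 microM importin beta to 50 nM Rango biosensor preincubated 5 min with compound (room temperature, PBS with DTT, Tween-20, BSA). No-importin wells as positive control.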
Numbers without * were called inactive; ? = inconclusive; . = not tested or not shown; & = joins results of further samples. An excerpt; count on the stated rates, not on these rows.

SMILES	GLA inh pH 4.5	miR-21 reporter	Rango dissoc inh	Rango-impB inh
Cc1cc(-n2c(C)cc(C(=O)COc3ccc([N+](=O)[O-])cc3)c2C)no1	1	-1%	9%	-0.2%
Cc1cc(C)c(S(=O)(=O)c2ccccc2)c(Cl)n1	-6	2%	-2%	-0.5%
COc1ccccc1C(=O)NCC(=O)OCC(=O)Nc1ccc2[nH]c(=O)[nH]c2c1	.	.	10%	-0.9%
Cc1ccccc1NC(=S)N1CCN(Cc2ccc3c(c2)OCO3)CC1	-1	-6%	8%	3.3%
CN(CC(=O)Nc1ccc(F)cc1)C(=O)c1ccc2ccccc2n1	.	.	0%	1.2%
O=C(COC(=O)Cn1cnc2ccccc21)Nc1ccc2c(c1)OCCO2	2	-3%	-4%	-0.5%
CN1C(=O)C(CC(=O)NCC2CCCCC2)SC1=Nc1ccccc1 (stereo unspecified)	-1	-1%	-15%	-1.7%
Cc1sc(-n2c(C)ccc2C)c(C#N)c1C	-7	-1%	14%	8.0%
COC(=O)c1cc(OC)c(OC)cc1NC(=O)CCNC(=O)c1ccco1	.	-4%	-16%	2.4%
CCn1c(CNC(=O)c2ccc(OC)c(OC)c2)nnc1SCC(=O)c1ccc(OC)cc1	2	2%	-3%	0.2%
CCCC1CCC(=NNS(=O)(=O)c2ccc(C)c([N+](=O)[O-])c2)CC1 (stereo unspecified)	-4	-8%	-7%	-1.9%
CCOC(=O)Cn1c(C)cc(COC)c(C#N)c1=O	10	-4%	3%	-2.1%
O=C(Cn1ccc([N+](=O)[O-])n1)N1CCCc2ccccc21	-4	-53%	-3%	-1.5%
O=C(c1ccccc1Cl)N1CCN(c2ncccn2)CC1	.	.	-4%	1.6%
Brc1ccc(NCc2cccc3ccccc23)nc1	-11	-16%	-5%	-5.1%
Cc1ccc(-c2onc3ccc(C4(C)OCCO4)cc23)cc1	4	-3%	?	0.4%
CCC(=O)NC(c1ccco1)c1cc(Cl)c2ccccc2c1O (stereo unspecified)	.	.	-18%	-0.4%
COc1cccc(-n2nnc3c(=O)n(CC(=O)Nc4ccccc4C)cnc32)c1	4	-1%	15%	-1.0%
O=C(Nc1ccc(Nc2ccccc2)cc1)c1ccc(Cl)cc1Cl	.	.	-11%	1.7%
COc1ccc(S(=O)(=O)N2CCCCC2)cc1NC(=O)c1ccc(N2CCCC2=O)cc1	.	.	-2%	2.5%
O=C(CSc1nc(-c2ccccc2)c(-c2ccccc2)[nH]1)NCc1ccco1	-2	24%	-3%	-1.5%
CS(=O)(=O)N(Cc1ccccc1)c1ccc(C(=O)N2CCN(c3cccc(Cl)c3)CC2)cc1	-2	11%	10%	-2.8%
CCOC(=O)c1coc(CNC(=O)c2c(C)oc3c2CCCC3)c1	-4	-11%	-3%	6.5%
O=C(Cc1ccc(F)cc1)Nc1cccc(-c2cn3c(n2)SCC3)c1	-8	-1%	1%	-1.6%
CCCCc1ccc(S(=O)(=O)Nc2nnc(C)s2)cc1	.	-1%	-5%	-0.6%
O=C(O)CCNc1nc(-c2ccccc2)nc2ccccc12	1	-3%	1%	3.5%
O=c1[nH]c2sc3c(c2c(=O)n1Cc1ccccc1)CCC3	6	0%	17%	0.4%
CCN1C(C#N)=C(C#N)N=C(C)CC1(C)C	4	0%	-1%	-1.6%
COc1ccc(CN2CCN(Cc3ccc4ccccc4c3)CC2)cc1OC	.	10%	14%	3.5%
COc1ccc(CCNC(=O)CNS(=O)(=O)c2ccc(Br)s2)cc1OC	7	-5%	-3%	-6.4%
C=C(C)C1Cc2cc3ccc(=O)oc3cc2O1 (stereo unspecified)	-4	-61%	16%	0.1%
CCCC(=O)N1CCCC(C(=O)c2cccc(OC(C)C)c2)C1 (stereo unspecified)	.	.	1%	-0.8%
Cc1ccc(S(=O)(=O)N2CCCCC2)cc1NC(=O)Cn1cnc2c1c(=O)n(C)c(=O)n2C	.	.	-5%	-0.5%
O=c1c2ccccc2nc(/C=C/c2ccc([N+](=O)[O-])cc2)n1CCCO	-7	-1%	?	?
COCCNC(=O)c1ccccc1NS(=O)(=O)c1ccc(Br)s1	0	-4%	14%	-1.2%
C/C(=N\NC(=O)c1ccc(O)cc1)c1cc2ccccc2o1	-3	-44%	3%	-1.2%
NS(=O)(=O)c1cccc(NC(=O)CC(NC(=O)c2ccccc2Cl)c2ccccc2)c1 (stereo unspecified)	.	0%	11%	4.3%
O=C(c1cc2c(s1)CCC2)N1C(=O)c2ccccc2S1(=O)=O	0	-4%	5%	5.4%
O=C(c1ccco1)N1CCN(CC(O)COc2ccc3oc4ccccc4c3c2)CC1 (stereo unspecified)	0	12%	1%	0.0%
O=C(Cc1ccc(Cl)cc1)NCCc1cnc[nH]1	.	0%	-7%	-0.1%
CCc1nnc(NC(=O)CSc2nnc(CNC(=O)c3ccc(OC)c(OC)c3)o2)s1	3	-2%	-1%	1.3%
CCNC(=O)CN(C1CCCCC1)S(C)(=O)=O	5	-2%	11%	0.0%
O=C(C1CC1)N1CCN=C1SCc1ccc(Cl)cc1	3	-31%	12%	5.2%
CCOC(=O)C1=C(C)N(Cc2ccccc2)C(=O)NC1c1ccccc1OS(=O)(=O)c1ccccc1[N+](=O)[O-] (stereo unspecified)	.	.	2%	6.7%
Cc1ccccc1NC(=O)N(C(C)C)C(C)C	0	-1%	-1%	-1.1%
Cc1ccc(S(=O)(=O)N2CCC(C(=O)NCC3CCCO3)CC2)cc1 (stereo unspecified)	-1	-3%	10%	0.1%
O=C(COC(=O)CNC(=O)c1ccccc1F)Nc1ccc(Cl)cn1	.	.	-14%	-1.2%
CC(SC1=NCCS1)C(=O)Nc1nnc(-c2ccc(Cl)cc2)s1 (stereo unspecified)	0	-27%	-15%	2.6%
O=C(c1ccccc1)N1CCN(CCc2ccccn2)CC1	.	0%&-6%	-2%	-0.9%
O=C(c1ccc(Cl)cc1)c1cnc2ccccn12	8	-47%	0%	6.5%

Additional structures.
SMILES	GLA inh pH 4.5	miR-21 reporter	Rango dissoc inh	Rango-impB inh
Cc1ccc(C(C(=O)NC2CCCCC2)N2CCC3(CC2)OCCO3)cc1 (stereo unspecified)	-1	-1%	-4%	-1.0%
CC(C)c1ccc(NC(=O)c2cc(S(=O)(=O)N3CCCCC3)c[nH]2)cc1	.	2%	-7%	1.0%
Cc1nn(C(C)C(=O)NCCC2=CCCCC2)c(=O)c2nn(-c3ccccc3)c(C)c12 (stereo unspecified)	.	-7%	-11%	3.1%
S=C(Nc1cc(Cl)cc(Cl)c1)N1CCN(c2ccccn2)CC1	.	2%	-4%	-0.2%
Cc1ccc(C)c(CSc2ncccc2C(=O)O)c1	-2	-11%	-13%	-0.5%
Cc1ccccc1OCC(=O)Nc1nnc(-c2ccco2)s1	3	2%	0%	0.3%
O=C(O)c1ccc2oc(=O)c(S(=O)(=O)c3ccc(F)cc3)cc2c1	.	-1%	-26%	?
O=C1CC2(CCCCC2)CC(=O)N1CCc1ccccc1	.	.	-9%	1.7%
NC(=O)COc1ccc(/C=N/NS(=O)(=O)c2ccccc2)cc1	-9	0%	-2%	-2.6%
CCOC(=O)C1CCCN(C(=O)c2cncc(Br)c2)C1 (stereo unspecified)	-4	3%	10%	-0.6%
COC(=O)CCn1[nH]c(=O)c2ccccc2c1=O	-1	6%	9%	-0.5%
O=C(Nc1ccc2oc(=O)ccc2c1)c1ccc2ccccc2c1	.	-12%	6%	1.7%
COC(=O)C1CCN(C(=O)c2ccc(Cl)c(S(=O)(=O)NCc3ccco3)c2)CC1	.	.	1%	-0.8%
Cc1cccc(NC(=S)N(CCN2CCOCC2)Cc2cc3cc4c(cc3[nH]c2=O)OCCO4)c1	-3	2%	?	0.6%
CCOC(=O)C1=C(COC(=O)[C@@H]2CCCN2S(=O)(=O)c2ccc(C)cc2)NC(=O)NC1C (stereo partly specified)	.	-1%	3%	-1.4%
CC(=O)c1cc(CN2CCN(Cc3ccc(C)cc3)C(CCO)C2)cs1 (stereo unspecified)	6	0%	4%	3.7%
COC(=O)c1cccc(NC(=O)CSc2nnc(C)n2C)c1	6	6%	7%	0.4%
O=C(c1ccccc1)c1ccccc1NC(=O)C1CCCN1Cc1ccccc1 (stereo unspecified)	-6	-8%	-10%	0.8%
CCOc1ccc(CN(C)C(=O)c2ccc(NS(=O)(=O)c3ccc4[nH]c(=O)[nH]c4c3)cc2)cc1	.	.	-6%	-1.5%
COc1ccccc1NC(=S)N1CCN(C(=O)c2ccco2)CC1	-2	-10%	0%	2.3%

Four structures already listed, sorted by SMILES length, falling.
SMILES	GLA inh pH 4.5	miR-21 reporter	Rango dissoc inh	Rango-impB inh
COc1cccc(-n2nnc3c(=O)n(CC(=O)Nc4ccccc4C)cnc32)c1	4	-1%	15%	-1.0%
O=C(c1ccccc1)c1ccccc1NC(=O)C1CCCN1Cc1ccccc1 (stereo unspecified)	-6	-8%	-10%	0.8%
CN(CC(=O)Nc1ccc(F)cc1)C(=O)c1ccc2ccccc2n1	.	.	0%	1.2%
CN1C(=O)C(CC(=O)NCC2CCCCC2)SC1=Nc1ccccc1 (stereo unspecified)	-1	-1%	-15%	-1.7%

(listing goes on)
SMILES	GLA inh pH 4.5	miR-21 reporter	Rango dissoc inh	Rango-impB inh
Cc1ccc(F)cc1NC(=O)CSCc1c(C)noc1C	.	.	12%	2.8%
O=C(NC1CC1)c1ccc(N2CCCCC2)c([N+](=O)[O-])c1	.	-43%	2%	-0.7%
C#CCOCCOCCOCCNc1nc(N2CCN(C(=O)[C@H](CO)n3cc([C@@H](N)C(C)C)nn3)CC2)nc(N2CCN(C(=O)[C@H](CCC(=O)O)n3cc([C@@H](N)CCCCN)nn3)CC2)n1	.	.	-2%	0.5%
COc1ccc(CNC(=O)C(C)NCc2ccccc2Cl)cc1 (stereo unspecified)	.	0%	-11%	-0.3%
CCOC(=O)CCCNC(=O)CN1C(=O)NC2(CCCCCC2)C1=O	4	0%	-6%	3.4%
O=C(NCc1ccccn1)C1CCCN(S(=O)(=O)c2ccccc2)C1 (stereo unspecified)	7	-5%	-8%	0.0%
CC1(C)CC(=O)C(C2=NC3(CCCCCC3)Cc3ccccc32)=C(O)C1	-2	5%	9%	-0.6%
CS(=O)(=O)Nc1ccc(C(=O)Nc2ccccc2C(=O)NCc2ccco2)cc1	.	-10%	-3%	-1.3%
C[C@H](NC(=O)c1ccc2c(c1)OCO2)c1nnc2ccccn12	.	-4%	18%	-0.6%
O=C(CNc1cc(S(=O)(=O)N2CCOCC2)ccc1N1CCCC1)Nc1ccc(Cl)cc1	.	.	-11%	0.5%
COC(=O)c1ccccc1C(=O)N1CCOCCOCCOCC1	-2	-1%	10%	1.2%
Cc1ccccc1C(=O)Nc1nnc(SCC(=O)NC2CC2)s1	.	-16%	-10%	-1.3%
Cc1ccc(Sc2ncccc2C(=O)NCC(c2ccc(F)cc2)N2CCOCC2)cc1C (stereo unspecified)	.	.	0%	-0.5%
CC(=O)c1cccc(NC(=O)N2C3CCC2CC(NC(=O)C2CC2)C3)c1 (stereo unspecified)	5	0%	-5%	-0.4%
C=CCn1c(SCC(=O)Nc2ccccc2F)nc2ccccc2c1=O	.	-4%	23%	?
O=C(CSc1n[nH]c(=O)[nH]c1=O)Nc1ccccc1C(=O)c1ccccc1	-1	6%	33%	1.5%
NC(=O)Nc1ccc(C(=O)OCC(=O)N(Cc2ccccc2)C2CCS(=O)(=O)C2)cc1 (stereo unspecified)	9	-18%	-6%	3.5%
Cc1cc(C)c(NC(=O)CSc2nc3ncc(Cl)cc3[nH]2)c(C)c1	.	7%	-5%	2.3%
CC1=C(C#N)C(c2ccc3ncccc3c2)C(C#N)=C(C)N1	-9	-5%	-8%	-2.6%
COc1cc(C2C3CN(C)CC=C3C(C#N)=C(N)C2(C#N)C#N)ccc1OC(C)C (stereo unspecified)	7	-8%	?	?
